HIV TAR-Tat: TAR RNA-Tat peptide displacers, HIV-1, primary screen, biochemical, FRET, FAM/TAMRA-labeled Tat; HIV-1 TAR RNA, Tat peptide displacement FRET; stronger effect = higher value; z-score (no concentration beside the values); hit rate 0.6% among 100,000; AID 1259389, 2018;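 further: score is relative to mean and SD of negative controls; some compounds called inactive have numbers as strong as hits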
CDC25B CDK2 inh: primary biochemical HTRF screen for blockers of M-phase inducer phosphatase 2 binding to CDK2/cyclin A; P30305+P24941; HTRF CDC25B-CDK2/CyclinA binding, anti-His/anti-Flag; stronger effect = higher value; z-score (test concentration not listed); hit rate 0.72% among 94,000; AID 1259370, 2018;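 further: score is relative to mean and SD of negative controls; strong numbers were not always called active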
* hit, by the source's call; / = no result given.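 How the source made its calls: active means z-score from 3 up in half or more of its runs; inactive means the rest.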

Order of results: HIV TAR-Tat | CDC25B CDK2 inh
- CCOCCOC(=O)C1=C(C)NC2=C(C(=O)CCC2)C1c1ccccc1OC(C)C (configuration not stated)
 : 0.42 | 0.33
- O=c1[nH]c2ccccc2cc1-c1noc(-c2cccnc2)n1
 : 1.1 | -0.79
- Cn1c(=O)c2cc(C(=O)Nc3cccnc3)sc2c2ccccc21
 : / | -0.89
- Cc1ccc(S(=O)(=O)NC(=O)NNC(=O)c2cc(C(C)(C)C)nn2Cc2ccc(F)cc2)cc1
 : / | -2.1
- Cc1ccc(S(=O)(=O)NCc2nc3ccccc3[nH]2)cc1
 : / | -1.4
- COCCOC(=O)C1=C(C)NC2=C(C(=O)CC(C)(C)C2)C1c1cc2c(cc1Br)OCO2 (configuration not stated)
 : 0.14 | -2.4
- CCC(=O)N(c1cccc(Cl)c1)C1C=CS(=O)(=O)C1 (configuration not stated)
 : 1.2 | -3.9
- CCn1c(C)c(/C=C/c2nc3ccccc3c(=O)n2C)c2ccccc21
 : -0.62 | -3
- Cc1nc2sc(C(c3cccs3)N3CCCC(C)C3)c(O)n2n1 (configuration not stated)
 : / | -0.35
- O=C(NCCCN1CCCC1=O)c1ccc2snnc2c1
 : 1.2 | 0.24
- Cc1ccccc1CN1C(=O)C(O)(c2c[nH]c3ccccc23)c2cc(Cl)ccc21 (configuration not stated)
 : -0.53 | -0.82
- Cc1ccc(-n2ncc3c(N4CCCCC4)ncnc32)cc1Cl
 : 0.67 | /
- CS(=O)(=O)c1ccc2nc(NC(=O)Cc3ccc(F)cc3)sc2c1
 : -1.6 | -1.3
- COCCNc1ncnc2c1sc1nc3c(cc12)COC(C)(C)C3
 : 0.52 | /
- CCOC(=O)NC(C(=O)OCC)(c1ccc(F)cc1)C(F)(F)F (configuration not stated)
 : / | -0.46
- Cc1sc2ncnc(NCCCO)c2c1C
 : / | -0.99
- CCCN(CCC)C(=O)c1oc2ccccc2c1NC(=O)CC(C)C
 : 1.2 | -1.4
- CCc1ccc(S(=O)(=O)c2cn(CC)c3cc(N(CC)CC)c(F)cc3c2=O)cc1
 : -1 | /
- CCC(=O)N1c2ccc(S(=O)(=O)N3CCN(C4CCCC4)CC3)cc2CC1C (configuration not stated)
 : -0.82 | /
- CCCCc1nn2c(=O)cc(CSc3n[nH]c(C)n3)nc2s1
 : -0.22 | /
- NCC1CCN(S(=O)(=O)c2ccc(F)cc2)CC1
 : -0.37 | -1.6
- Cn1c(=O)c2cn(-c3ccc(Cl)cc3)cc2n(C)c1=O
 : 1.6 | -0.44
- O=C(Nc1ccc2c(c1)OCCO2)N1c2ccccc2Sc2ccccc21
 : / | -0.81
- COc1ccc2nc(C)n3c4ccccc4c(NC(C)=O)c3c2c1
 : / | -6
- CCCCN(C)S(=O)(=O)c1cc(F)ccc1CN1C(=O)c2cccnc2C1=O
 : 0.23 | /
- C=C(C)Cn1c(N2CCN(c3ccccc3)CC2)nc2c1c(=O)n(C)c(=O)n2C
 : / | -3.7
- CSc1nc2n(n1)C(C(C)C)C(C(=O)Nc1ccc(Cl)cc1)=C(C)N2 (configuration not stated)
 : 0.5 | -4.2
- CSc1nn(-c2ccccc2)c[n+]1-c1ccccc1
 : / | -1.2
- COc1ccc(C2CC(=O)C3=C(C2)NC(=O)CC3c2ccccc2)cc1OC (configuration not stated)
 : 0.61 | -0.13
- CCOC(=O)c1[nH]cnc1C(=O)O
 : 1.5 | -1.4
- Cc1cc(C(C)(C)C)cc(C)c1CC1=NCCN1
 : 0.47 | -0.67
- CCCCCCCOC(=O)C1=C(C)Nc2ncnn2C1c1ccncc1 (configuration not stated)
 : 1.7 | -0.11
- CCC(C)NC(=O)c1c(OC)ccc([N+](=O)[O-])c1OC (configuration not stated)
 : / | -1.3
- CC(C)(C)C(=O)c1cn(CC(=O)N2CCc3ccccc32)c2ccccc12
 : 2 | -1.1
- Cc1ccc2ncc(C(=O)Nc3nc(C)cs3)c(=O)n2c1
 : 0.04 | -0.92
- CN(C)c1ccc(NC(=O)C2(c3cccs3)CCOCC2)cc1
 : 1.3 | /
- N#Cc1c(-c2ccccc2)nc(SCc2cccc(Cl)c2)[nH]c1=O
 : 1.1 | 1.2
- CS(=O)(=O)CC[C@@H](C(=O)NCCc1ccccc1)N1Cc2ccccc2C1=O
 : 0.61 | -1.9
- COc1ccc2oc(=O)c(C(=O)N3CCN(c4ccccn4)CC3)cc2c1
 : / | -0.67
- Cc1noc(C(=O)N(C)c2ccccc2)c1Cl
 : 1.6 | -0.26
- CCn1cnc2c(=O)oc3ccccc3c21
 : 1.2 | -1.3
- C=C(C)CC1N(c2ccccc2C)C(=O)C2C(C(=O)O)C3C=CC21O3 (configuration not stated)
 : 0.48 | -0.29
- CCN1C(=O)c2ccccc2Sc2ccc(NC(=O)N3CCN(c4ccccc4)CC3)cc21
 : 0.54 | -0.49
- Cc1ccc(F)cc1S(=O)(=O)N1CCC(Oc2ccc(-n3cnnn3)cc2)CC1
 : 0.4 | -1.6
- Cc1cc(C)cc(-n2ccnc(SCc3c(F)cccc3Cl)c2=O)c1
 : 1.2 | /
- Cc1cc(C)c(NC(=O)CSc2nncn3c2cc2oc(C)cc23)c(C)c1
 : -2.3 | /
- COc1ccc(NS(=O)(=O)c2ccc(N3CCCC3=O)cc2)c(OC)c1
 : 0.88 | /
- CC(=O)N1c2ccc(S(=O)(=O)NCc3cc(C)n(-c4ccc(Cl)cc4)c3C)cc2CC1C (configuration not stated)
 : 1.3 | /
- COc1cccc(C2C(C(=O)OC(C)C)=C(C)NC3=C2C(=O)CC(C)(C)C3)c1 (configuration not stated)
 : 0.61 | -2.7
- CCOC(=O)C(C)n1nc(C)c2c(C)n(-c3ccccc3)nc2c1=O (configuration not stated)
 : 0.52 | 0.21
- CC1(C)CC(NS(=O)(=O)c2ccc3ccccc3c2)CC(C)(C)N1
 : / | -3.3
- O=C(Oc1ccc(Cl)cc1)N1CCCCC1
 : -0.67 | -1.4
- CSc1ncc(Cl)c(C(=O)N(Cc2ccc(C(C)C)cc2)C2CCS(=O)(=O)C2)n1 (configuration not stated)
 : 1.5 | 1.7
- Cc1cc2oc(C(=O)NCC(c3ccco3)N(C)C)cc(=O)c2cc1Cl (configuration not stated)
 : 0.63 | -2.4
- CC(Sc1nc2sc3c(c2c(=O)n1-c1ccccc1)CC(C(C)C)OC3)C(=O)O (configuration not stated)
 : / | 0.07
- COC(=O)c1ccc(/N=C/N(C)C)o1
 : / | -2.6
- Cc1nc(N2CCOCC2)cc(N2CCN(C(=O)Nc3ccc(Cl)cc3)CC2)n1
 : 0.04 | 0.45
- COCCCn1nnc2cc(S(=O)(=O)N3CCCC3C(=O)O)ccc21 (configuration not stated)
 : -0.31 | -0.44
- CCCS(=O)(=O)N1CCCc2ccc(NS(=O)(=O)c3cc(F)ccc3F)cc21
 : 7.2* | /
- CC(C)C(=O)Nc1cscc1S(=O)(=O)c1ccc(Cl)cc1
 : / | 0.6

Next section:
Order of results: HIV TAR-Tat | CDC25B CDK2 inh
- O=C(CSc1nc2cc3c(cc2c(=O)n1CCC1=CCCCC1)OCO3)NCc1ccco1
 : / | -0.92
- Cc1ccc(-c2csc3ncnc(-n4nc(C)cc4N)c23)cc1
 : / | -0.79
- CC(=O)N1CCn2c3c(c4cc(C5CCCCC5)ccc42)CCCC31 (configuration not stated)
 : / | -2.1
- O=S(=O)(c1ccc(Cl)cc1)c1nc(-c2cccs2)oc1NCc1ccccc1
 : -1.9 | 0.34
- Cc1ccccc1-c1nc2c3c(C)c(C)n(CCN4CCOCC4)c3ncn2n1
 : 0.68 | -0.06
- O=C(c1ccc(Br)cc1)C(C(=O)N1CCc2ccccc2C1)n1ccccc1=O (configuration not stated)
 : -0.59 | -0.61
- Cc1ccc(-c2nc3sc(CCNS(=O)(=O)c4ccccc4)c(C)n3n2)cc1
 : 0.21 | /
- N#CC1=C(SCc2ccccc2)SC(c2ccccc2O)NC1=O (configuration not stated)
 : 0.48 | -1.4
- O=Cc1c(O)c2ccccc2c2ccccc12
 : / | -2.4
- COC(=O)c1cc(-c2ccc(Cl)cc2)nc2ccc(C)cc12
 : 0.26 | -0.78
- Cc1nn2c(=O)cc(COC(=O)C(C)C)nc2s1
 : 0.29 | /
- Cc1ccc2c(c1)sc1nc(C)c(S(=O)(=O)Nc3ccc(C(C)C)cc3)c(=O)n12
 : 1.1 | /
- CC(C)(C)c1ccccc1OCC(O)CN1CCN(Cc2ccc3c(c2)OCO3)CC1 (configuration not stated)
 : / | -0.16
- CCCN(Cc1cc2ccc(C)cc2[nH]c1=O)S(C)(=O)=O
 : 3.1 | -1.8
- CCC(C)OC(=O)COc1ccc2c(=O)c(Oc3ccc(C(C)(C)C)cc3)coc2c1 (configuration not stated)
 : 0.22 | -0.5
- CCn1c(=O)n(CC)c2cc(NC3=C(C(=O)Nc4ccccc4)S(=O)(=O)c4ccccc43)ccc21
 : -0.65 | /
- C=CCN1CC(c2nc3ccccc3n2CC(=C)C)CC1=O (configuration not stated)
 : 2 | -1.9
- O=C(Nc1cccnc1)c1cc(-c2ccc3c(c2)OCCO3)on1
 : -0.08 | 7.2
- O=C(CSc1nc2ccccc2nc1N1CCCC1)N1CCN(c2ccc(F)cc2)CC1
 : 1.7 | -2.2
- CC(=O)Nc1ccc(I)cc1
 : / | -1.8
- COc1ccc(-c2noc(NCCCN3CCOCC3)n2)cc1
 : 0.5 | /
- CSc1n[nH]c(-c2ccccc2)c1C#N
 : / | -0.93
- CCc1nc2cccnc2n1-c1ccc(CC(=O)O)cc1
 : 0.47 | -0.47
- CCOC(=O)c1cc(S(=O)(=O)NC2CCC(C)CC2)cn1C (configuration not stated)
 : 0.84 | -1.9
- Cc1ccc2c(c1)N(S(=O)(=O)c1cc(-c3onc(C)c3C)ccc1C)CCO2
 : 1.8 | /
- Cc1c(Cl)c([N+](=O)[O-])nn1CC(=O)Nc1sc2c(c1C(=O)OC(C)C)CCCC2
 : 1.2 | /
- O=C(CSc1nc2nccnc2c(=O)n1CCc1c[nH]c2ccccc12)Nc1ccccc1
 : 2.9 | -0.94
- C=CCN1C(=O)c2[nH]nc(-c3c(C)cc(C)cc3O)c2C1c1cccc(OCC)c1 (configuration not stated)
 : 0.27 | 1.3
- O=C(CCc1nc(CN2CCN(C(=O)c3ccc(Br)cc3)CC2)no1)N1CCOCC1
 : -0.72 | /
- Cc1onc(-c2c(F)cccc2Cl)c1C(=O)n1ccc(-c2cccs2)n1
 : / | -0.11
- CCCc1cnc(N2CCN(C(=O)c3sc4ccccc4c3Cl)CC2)nc1
 : / | -2.1
- CCOC(=O)c1c(N=Cc2ccccc2Cl)n[nH]c1C
 : / | -0.95
- CCOC(=O)Cc1c(C)[nH]n(-c2ccccc2)c1=O
 : / | -1.1
- O=S(=O)(NCc1ccc(Br)cc1)c1cc(-c2noc(C3CC3)n2)cs1
 : -0.3 | /
- COC(=O)c1ccc(C2Nc3c(C(=O)O)cccc3C3C4CCC(C4)C23)cc1 (configuration not stated)
 : 3.3 | -1.2
- CCOC(=O)c1c(NC(N)=O)sc2c1CC(C)(C)OC2
 : 0.4 | -1.7
- O=C1c2ccccc2-c2onc3c(N4CCN(C5CCCCC5)CC4)cc(N4CCOCC4)c1c23
 : -2.4 | -1.8
- Cc1c(C(=O)C(=O)NC(C)(C)C)c2ccccc2n1C
 : / | -2.5
- O=C(NCC1COc2ccccc2O1)C1CCC(CNc2c(N3CCCCC3)c(=O)c2=O)CC1 (configuration not stated)
 : 0.39 | -0.4
- Cn1c(SCc2ccccc2)nc(=O)c2c1NC(=O)CC2c1cc(F)ccc1F (configuration not stated)
 : 0.86 | 0.4
- COc1ccc(C2C=C(C(=O)O)Nc3nnnn32)cc1OC (configuration not stated)
 : -0.68 | /
- Cc1cn2c(=O)cc(CSCCc3c(C)noc3C)nc2s1
 : 0.98 | /
- Cc1ccc(-c2nc3c4c(C)c(C)n(-c5cccnc5)c4ncn3n2)cc1
 : 1.2 | -2.4
- O=C(c1cccc(F)c1)N1CCc2cc3ccccc3nc21
 : 0.78 | -0.7
- Cc1ccc(-n2nc(C)c3c2OC(N)=C(C#N)C3c2ccncc2)cc1 (configuration not stated)
 : -0.55 | -2
- FC(F)(F)c1ccc(N2CCN(Cc3cc(Cl)cc4c3OCOC4)CC2)nc1
 : / | 0.32
- Cc1ccc(CNc2nc3nc(C)c(C)c(=O)n3[nH]2)cc1
 : -0.19 | -1.7
- O=C(CSc1ccc(F)cc1)N1CCN(c2ccccc2)CC1
 : / | -0.94
- CCC(C)OC(=O)C(C)Oc1ccc2c(=O)c(Oc3ccccc3Cl)coc2c1 (configuration not stated)
 : 1.3 | -0.38
- CCOc1ccc(S(=O)(=O)Nc2ccc3c(c2)N(S(=O)(=O)c2ccc(F)cc2)CCC3)cc1
 : 1.1 | /
- CC(C)c1nn2c(=O)cc(CSc3ccccc3NC(=O)c3cccs3)nc2s1
 : 0.64 | /
- Cc1ccccc1-c1nc(C2CCCCC2)no1
 : -1.1 | -1.2
- Brc1c(CSc2nnnn2-c2ccccc2)nc2ccccn12
 : / | 0.68
- CCCS(=O)(=O)Nc1ccc2c(c1)CC(=O)N2CC
 : 0.99 | /

From PubChem
